# KCNQ2 pot = potentiators of rat KCNQ2 potassium channel; Potassium voltage-gated channel subfamily KQT member 2 (Rattus norvegicus), O88943; CHO-K1 KCNQ2, FluxOR thallium flux fluorescence; stronger effect = higher value; B-score at 10 µM; actives 0.54% (n = 310,000);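 active = fluorescence ratio B-score at least 3 SD of library B-scores, with initial fluorescence B-score within 3 SD, cut at about 5.3 in these data; same plate scores as AID 2156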;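 also: B-score of peak minus minimum over baseline fluorescence ratio after K+ and Tl+ stimulus; positive B-score means potentiation of KCNQ2 with more thallium influx and brighter signal; only the inactives scoring about 0 or higher are listed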
# Target sequence (O88943 whole entry, looked up): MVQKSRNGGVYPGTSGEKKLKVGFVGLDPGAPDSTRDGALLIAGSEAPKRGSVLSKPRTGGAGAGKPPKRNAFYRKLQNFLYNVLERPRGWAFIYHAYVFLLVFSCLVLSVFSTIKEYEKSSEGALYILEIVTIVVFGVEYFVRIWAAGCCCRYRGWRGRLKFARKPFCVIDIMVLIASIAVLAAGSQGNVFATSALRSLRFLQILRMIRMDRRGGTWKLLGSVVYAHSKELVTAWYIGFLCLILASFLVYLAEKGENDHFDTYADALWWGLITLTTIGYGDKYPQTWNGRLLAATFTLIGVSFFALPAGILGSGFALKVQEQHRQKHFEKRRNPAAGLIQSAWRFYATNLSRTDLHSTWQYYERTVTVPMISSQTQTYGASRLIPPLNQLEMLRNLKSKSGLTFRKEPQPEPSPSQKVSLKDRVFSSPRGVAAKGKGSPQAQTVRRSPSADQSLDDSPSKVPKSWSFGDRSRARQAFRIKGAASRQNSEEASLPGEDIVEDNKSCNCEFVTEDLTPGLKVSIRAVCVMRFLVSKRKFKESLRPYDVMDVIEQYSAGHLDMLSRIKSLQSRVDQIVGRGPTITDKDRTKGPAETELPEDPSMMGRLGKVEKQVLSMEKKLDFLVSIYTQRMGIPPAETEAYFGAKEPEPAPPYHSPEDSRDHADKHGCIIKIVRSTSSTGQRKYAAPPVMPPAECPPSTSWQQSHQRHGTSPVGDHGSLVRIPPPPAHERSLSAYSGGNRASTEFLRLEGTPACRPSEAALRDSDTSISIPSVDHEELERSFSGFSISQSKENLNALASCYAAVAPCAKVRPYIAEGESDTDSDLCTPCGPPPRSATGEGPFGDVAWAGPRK
# KCNQ2 pot baseline = further read-out of KCNQ2 pot, marked with its call; B-score; compound at 10 µM; measured here: initial fluorescence intensity artifact check;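 brightness before thallium and not channel activity; 0 = typical well and far values either way flag optical interference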
# * marks the source's active call; other numbers are inactive results. The list is partial; count on the stated rates, not on these rows.
SMILES,KCNQ2 pot,KCNQ2 pot baseline
CCCCc1nc2cc(C(=O)N(C)C(C)c3ccccn3)ccc2o1 (centres undefined),0.53,-0.1
CCCN(CC(=O)Nc1ccccc1C)C(=O)C1CCN(C(=O)Nc2ccccc2)CC1,1.1,0.53
C[C@]12C=CC(=O)C=C1CC[C@H]1[C@@H]3C[C@@H](O)[C@](O)(C(=O)CO)[C@@]3(C)C[C@H](O)[C@@]12F,0.71,1.2
O=C(NNC(=O)c1ccccc1F)c1ccc2[nH]c(=O)c(=O)[nH]c2c1,0.34,1.1
CN(c1ncnc(N)c1[N+](=O)[O-])C1CCCCC1,1.2,2.4
Cc1ccc(S(=O)(=O)N2CCN(C(=O)N(C)C)CC2)cc1C,1.9,1.3
Cc1ccc(NC(=O)CSc2nnc(NC(=O)C(C)C)s2)c(C)c1,1.2,-0.18
O=C(NCCC1=CCCCC1)C1CCN(S(=O)(=O)c2cnc[nH]2)CC1,0.12,0.09
CCc1nnc(NC(=O)C2CCN(c3nc(C)cc(C)n3)CC2)s1,0.7,-0.05
COc1ccc(N2CC(O)=C(c3nc4ccccc4s3)C2=N)cc1,3.4,-1.6
O=C(CCSCCC(=O)NCc1ccco1)NCc1ccco1,0.77,-0.45
COc1ccc(-c2nc3ccc(C)cn3c2NCc2ccccc2)cc1SC1CCCCC1,0.1,1
CC(=O)N/C(=C/c1ccccc1)C(=O)NCCO,2.1,0.59
O=C(O)c1ccccc1Nc1ccc2nonc2c1[N+](=O)[O-],0.6,-0.02
CCc1cc2c(=O)n(-c3ccccc3)c(SCC(=O)O)nc2s1,0.46,-3.3
CN1CCN(NC(=O)c2cccc(S(=O)(=O)N3CCCCCC3)c2)CC1,0.41,0.06
CCC1Oc2ccccc2N(CC(=O)NCCCN2CCCC2)C1=O (centres undefined),0.67,3.2
Cn1cc(C=C2C(=O)OC3(CCCCC3)OC2=O)c2ccccc21,0.25,-2.2
O=C(NNS(=O)(=O)c1ccc(F)c(Cl)c1)c1cccc(S(=O)(=O)N2CCOCC2)c1,0.17,0.76
CS(=O)(=O)N1CCn2c1nc1ccccc12,1.6,0.05
COc1ccc(C(=O)OCC(=O)NC(=O)NC2CCCC2)c(OC)c1,0.99,0.07
O=C(NCc1ccccc1)c1ccc(-c2ccccc2C(F)(F)F)o1,0.65,-0.27
CCC(C)(C)C1CCc2c(sc(NC(=O)c3ccccc3C(=O)O)c2C#N)C1 (centres undefined),8.3*,-0.77*
CN(C)CCOC(=O)Cc1ccc(Cl)cc1,0.57,-0.87
O=C(NCc1ccccn1)c1cnc2sccn2c1=O,0.59,-0.65
# (more compounds)
SMILES,KCNQ2 pot,KCNQ2 pot baseline
Cc1ccc(C(C(=O)NCc2ccco2)N(C(=O)CNC(=O)c2cccs2)c2c(C)cc(C)cc2C)cc1 (centres undefined),0.44,0.66
CC(NC(=O)c1ccc(NS(C)(=O)=O)cc1)c1ccccc1 (centres undefined),0.07,0.34
COc1ccc(/C=N/NC(=O)c2ccc3c(c2)OCCO3)cc1[N+](=O)[O-],0.01,0.91
COc1ccnc2c1c(=O)n(Cc1c(F)cccc1Cl)c(=O)n2C,1.7,-0.3
COc1cc2c(cc1C=O)OC(C)C2 (centres undefined),0.07,-0.34
O=C(NCCCO)/C(=C/c1ccco1)NC(=O)c1ccc(Br)o1,0.1,0.12
COc1ccc(/C=N/NC(=O)C(=O)Nc2ccccn2)cc1OC,2.1,0.3
Nc1c([N+](=O)[O-])cnnc1-c1ccccc1,0.47,-1.4
O=C(CNC(=O)C1CCCCC1)Nc1cc(Cl)cc(Cl)c1,0.02,1.5
COc1cccc2sc(N(CCCN(C)C)C(=O)CCS(=O)(=O)c3ccccc3)nc12,2.9,-1.8
COC(=O)c1cc(NC(=O)CC2Oc3ccccc3NC2=O)cc(C(=O)OC)c1 (centres undefined),0.04,0.04
Cc1c(NS(=O)(=O)c2ccc(N(C)C3CCCCC3)c([N+](=O)[O-])c2)c(=O)n(-c2ccccc2)n1C,0.27,-0.42
CCC1CCc2c(sc(NC(=O)c3ccco3)c2C(N)=O)C1 (centres undefined),2.1,-0.53
CCc1nc(SCC(=O)Nc2ccc(N(C)C)cc2)c2ccccc2n1,0.09,0.63
CSc1nc2ccc(NC(=O)NC(=O)c3c(F)cccc3F)cc2s1,0.34,-0.54
COc1ccc(NC(=S)N(CCCN2CCOCC2)C(C)c2cc3cccc(OC)c3o2)cc1 (centres undefined),0.04,0.77
COc1cc(OC)c(OC)cc1/C=N/n1c(C)nc2ccccc2c1=O,2,-0.1
COC(=O)C1CCN(C(=O)COC(=O)c2ccc(OC)c(S(=O)(=O)N3CCCc4ccccc43)c2)CC1,1.1,-2.6
Cc1cccc(-c2nnc(NC(=O)c3cccs3)s2)c1,0.14,-0.02
COc1ccc(Br)cc1-c1noc(-c2ccncc2)n1,0.96,1.5
CCO[C@H]1OC(C(=O)NC2CC2)=C[C@@H](C)[C@@H]1CCCO,0.26,0.04
C[C@H](NC(=O)OC(C)(C)C)c1nnc(SCC(=O)Nc2ccc(Br)cc2)o1,1.1,0.58
CS(=O)(=O)Nc1ccc(-c2ccc(/C=C3\SC(N)=NC3=O)o2)cc1,1.2,-0.16
O=[N+]([O-])c1ccc2nc(SCc3cn4ccccc4n3)[nH]c2c1,0.59,1.6
COc1ccc(N2CC(O)=C(c3nc(-c4ccc(Cl)cc4)cs3)C2=N)cc1,0.8,-0.09
# Additional results:
SMILES,KCNQ2 pot,KCNQ2 pot baseline
C=CCn1cc(C(=O)OC)c(=O)c2cc(S(=O)(=O)N3CCCCCC3)ccc21,0.55,-0.58
CC(C)NC(=O)c1ccccc1NS(=O)(=O)c1ccc(Br)s1,2,-2.6
O=C(CN1CCN(Cc2ccccc2)CC1)Nc1cccc(S(=O)(=O)N2CCCCCC2)c1,1.4,-3.5
Cc1c(NC(NC(=O)CC(C)C)C(Cl)(Cl)Cl)c(=O)n(-c2ccccc2)n1C (centres undefined),0.07,1.7
CC(C)CN1CCNC(=O)C1CC(=O)NCCc1ccc(C(F)(F)F)cc1 (centres undefined),0.01,0.45
Cc1csc(SCC(=O)Nc2nc3ccccc3s2)n1,2.2,-3
Cc1ccccc1Nc1nc(N)nc(COC(=O)[C@@H](NC(=O)c2c(F)cccc2F)C(C)C)n1,1.1,-0.94
CCCCOC(=O)c1cc(=O)[nH]c(=O)[nH]1,0.67,0.07
COc1ccc(NC(=O)CCNS(=O)(=O)c2ccc3c(c2)CCC(=O)N3)cc1,0.67,-0.32
Cc1ccc(NC(=O)c2ccco2)c(NC(=O)c2cccs2)c1,1.5,0.51
COc1ccc(CN2CC(C(=O)NCCC3=CCCCC3)CC2=O)cc1 (centres undefined),0.03,-0.27
CN(Cc1nnc(-c2ccc(F)cc2)o1)c1ccccc1,0.6,2.4
CC(=O)Nc1ccc(Nc2nc(C)nc3c2oc2ccccc23)cc1,1.4,-0.77
O=C(O)CCC(=O)NNc1ccccc1[N+](=O)[O-],0.69,0.03
Cn1c(SCCC#N)nnc1-c1ccc(F)cc1,0.45,-0.02
C[C@]12CC[C@@H]3c4ccc(O)cc4CC[C@H]3[C@@H]1CC[C@@H]2OC(=O)CCC1CCCC1,0.21,0.25
O=C1C(=O)c2ccccc2C(O)=C1c1ccccc1F,0.13,1.3
COC(=O)c1ccc(C(=O)OCCCc2nc3ccc(N)cc3[nH]2)cc1,1.1,0.02
CCOC(=O)c1csc(NC(=O)c2ccc(S(=O)(=O)N(C)C)cc2)n1,0.84,3.6
CCCSc1nc2c(c(=O)[nH]c(=O)n2C)n1Cc1ccc(C)cc1,0.67,0.32
NC(=O)c1ccc(C23CC4CC(CC(C4)C2)C3)o1,1.1,-0.01
CCOC(=O)C1=C(C)N(CCCC(=O)O)C(=O)NC1c1cccc(OC)c1 (centres undefined),0.04,-2.4
CCOc1ccc(C2N(c3ccc(Cl)cc3)C(=O)C3CCCN32)cc1OC (centres undefined),0.32,0
O=C(CSc1nnc(CNC(=O)c2ccco2)o1)Nc1ccc(OC(F)(F)F)cc1,0.92,0.72
CC(C)NC(=O)CSc1nc2ccccc2c(=O)n1CCCOC(C)C,0.06,0.68

# Shown with bars between the fields: part of the list above
Structure | KCNQ2 pot | KCNQ2 pot baseline
Cc1ccc(NC(=O)c2ccco2)c(NC(=O)c2cccs2)c1 | 1.5 | 0.51
O=C1C(=O)c2ccccc2C(O)=C1c1ccccc1F | 0.13 | 1.3
COc1ccc(CN2CC(C(=O)NCCC3=CCCCC3)CC2=O)cc1 (centres undefined) | 0.03 | -0.27
C[C@]12CC[C@@H]3c4ccc(O)cc4CC[C@H]3[C@@H]1CC[C@@H]2OC(=O)CCC1CCCC1 | 0.21 | 0.25
CC(C)CN1CCNC(=O)C1CC(=O)NCCc1ccc(C(F)(F)F)cc1 (centres undefined) | 0.01 | 0.45
CCCSc1nc2c(c(=O)[nH]c(=O)n2C)n1Cc1ccc(C)cc1 | 0.67 | 0.32

# Further structures:
SMILES,KCNQ2 pot,KCNQ2 pot baseline
CCN(CC(=O)Nc1ccc2c(c1)OCCO2)C(=O)CC1CCCC1,1.7,-0.17
COC(=O)c1ccc(-c2noc(CN(C)CCC3CCCCO3)n2)cc1 (centres undefined),0.34,1.1
C/C(=N\NC(=O)c1ccccc1O)C1CC1,0.73,-0.7
CCOC(=O)C1=C(C)C(c2ccccc2)NC(=S)N1 (centres undefined),0.46,-0.76
Cc1cc(C)c(C)c(Cn2c(CO)nc3ccccc32)c1C,0.51,-2
CC(=O)Nc1cccc(NC(=O)CSc2nnc3ccc(-c4ccccn4)nn23)c1,0.75,-0.51
O=C(Cc1c(O)c2ccccc2[nH]c1=O)N(Cc1ccccc1)Cc1ccccc1,0.54,-1.6
CC(C)c1ccc(/C=C(\NC(=O)c2ccccc2)C(=O)NCCCN2CCOCC2)cc1,0.07,-0.06
COC(=O)c1cccc(NC(=O)CSc2nnc(C3CC3)n2C)c1,0.73,1.1
CCc1ccc(OCC(=O)NC(=S)Nc2ccc(Br)c(C)n2)cc1,0.49,0.34
C=CCNC(=O)c1cc(C(=O)C(C)c2ncc(C(F)(F)F)cc2Cl)c[nH]1 (centres undefined),0.68,0.92
O=C(CSc1ncn[nH]1)Nc1ccc(Cl)c(S(=O)(=O)N2CCOCC2)c1,1.5,-0.32
O=C(Oc1ccccc1)N1CCOCC1,0.17,-1.4
Fc1ccc(CNC(=S)Nc2ccc(Cl)cc2)cc1,2.7,0.92
CC(C)(C)N1C(=O)Cc2c1nc(N)c1c(N)nc(N3CCCCC3CO)c(C#N)c21 (centres undefined),1.4,-1.1
CC(=O)c1ccc(Nc2ccc(-c3ccccc3C)nn2)cc1,1.5,-0.48
COC(=O)C1=C(O)C2(C(=O)O)CC(C(=O)OC)=C(O)C(C(=O)O)(C1)C2,0.37,0.05
O=C1c2ccccc2S(=O)(=O)N1Cc1nnc(-c2ccccc2Br)o1,0.61,-0.85
CCc1ccc2[nH]c(C(=O)N(C)c3ccc(F)cc3F)cc2c1,0.11,-1.4
O=C(CCC1CCN(Cc2ccc(Cl)cc2)CC1)NC1CC1,0.02,1.6
Cc1c(CC(=O)O)c(=O)oc2cc3occ(-c4ccc(F)cc4)c3cc12,2.4,0.33
CN(C)C(=O)c1nc(C#N)c(N(C)C)o1,0.7,-0.54
CN(C(=O)CC1C(=O)NCCN1Cc1cccc(C(F)(F)F)c1)C1CCOCC1 (centres undefined),0.43,-1.1
CS(=O)(=O)N(CC(=O)N1CCOCC1)Cc1ccccc1,0.2,-2.2
CCCCc1ncc(CN2CCC(CC3CCCCO3)(C(=O)OCC)CC2)[nH]1 (centres undefined),0.83,0.21

# Whole records as entered above. Order of screens: KCNQ2 pot | KCNQ2 pot baseline
# Listed for CC(C)(C)N1C(=O)Cc2c1nc(N)c1c(N)nc(N3CCCCC3CO)c(C#N)c21 (centres undefined) : 1.4 | -1.1
# Listed for CCCCc1ncc(CN2CCC(CC3CCCCO3)(C(=O)OCC)CC2)[nH]1 (centres undefined) : 0.83 | 0.21
# Listed for COC(=O)c1ccc(-c2noc(CN(C)CCC3CCCCO3)n2)cc1 (centres undefined) : 0.34 | 1.1
# Listed for CN(C)C(=O)c1nc(C#N)c(N(C)C)o1 : 0.7 | -0.54
# Listed for COC(=O)c1cccc(NC(=O)CSc2nnc(C3CC3)n2C)c1 : 0.73 | 1.1

# Exported with values under each structure: part of the list above.
# Sequence of screens: KCNQ2 pot, KCNQ2 pot baseline
> Cc1cc(C)c(C)c(Cn2c(CO)nc3ccccc32)c1C
    0.51, -2
> CS(=O)(=O)N(CC(=O)N1CCOCC1)Cc1ccccc1
    0.2, -2.2

# (next part)
SMILES,KCNQ2 pot,KCNQ2 pot baseline
Cc1ccccc1-n1ncc2c(SCC(=O)NC3CCCC3)ncnc21,1.1,-0.19
C(=N\Nc1nc2ccccc2s1)/c1ccco1,0.01,0.99
Cc1cccc(NC(=S)NCc2cccs2)c1C,0.24,3.2
O=C1CC(C(=O)N2CCN(c3ccc(F)cc3)CC2)CN1CCc1ccccc1 (centres undefined),0.45,3.7
O=C(Nc1cnn(Cc2ccc(Cl)cc2)c1)c1cccs1,1,-0.06
CC(=O)c1cc(F)c(N2CCN(c3ccc([N+](=O)[O-])cc3F)CC2)cc1C,0.04,0.76
O=C(CSc1nnc(CNC(=O)c2cccs2)o1)Nc1cccc(Cl)c1,0.28,-1.4
COc1ccc(NC(=O)/C(=C\c2cccs2)NC(=O)c2ccco2)cc1,0.46,0.73
COc1ccc(N(CC(=O)Nc2ccccc2C)S(=O)(=O)c2ccccc2[N+](=O)[O-])c(OC)c1,1.1,0.84
O=c1ccc(-c2ccc(S(=O)(=O)Nc3cccc(F)c3)o2)n[nH]1,2.2,-0.59
CCOC(=O)C1CCCN(C(=O)Cc2c(F)cccc2Cl)C1 (centres undefined),0.61,-0.05
CC(=O)c1c(C)[nH]c(C(=O)OCCCCN2C(=O)c3ccccc3C2=O)c1C,0.64,1.2
CN1Cc2ccccc2CC1CNCc1c(C(=O)N2CCCC2)nc2ccccn12 (centres undefined),1.5,0.25
CCOC(=O)C1CCCN(CCC(=O)Nc2cccc(Cl)c2C)C1 (centres undefined),0.2,1.1
Cc1cc(=O)n(C)c(=O)n1CCCCCOc1cccc([N+](=O)[O-])c1,0.73,0.22

# Screens as filed in PubChem.
